Ecoli rRNA inh: selective bacterial rRNA inhibition in E. coli; E. coli WT GFP vs humanized-ribosome RFP mutants, fluorescence, 24 h; hits give low values; DMSO median 0, no signal -100; GFP signal change (wild-type ribosome), % (test concentration not listed); 350,000 tested, 1.6% active;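 active means significant combined selectivity score with lowered wild-type GFP, culture density cut under 30%, mutant RFP and density less affected; inactive means any of these conditions unmet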; further: one replicate is shown; some compounds called inactive have numbers as strong as hits
FGF22 binding: binders of recombinant human FGF22 by thermal shift. Q9HCT0. SYPRO orange fluorescence; percent of sucrose octasulfate shift, DMSO zero. calls only at 9.99 µM. 340,000 tested, 1.5% active;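 active means melting point raised past a set limit in the mean and every replicate; three in four hits are not shown here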
Target sequence (Q9HCT0 whole entry, looked up): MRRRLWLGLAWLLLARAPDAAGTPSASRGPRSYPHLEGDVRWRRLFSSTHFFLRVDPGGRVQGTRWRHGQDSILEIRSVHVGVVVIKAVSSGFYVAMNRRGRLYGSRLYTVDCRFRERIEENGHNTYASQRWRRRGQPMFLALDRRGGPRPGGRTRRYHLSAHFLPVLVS
Ecoli rRNA inh OD600: also measured in Ecoli rRNA inh; calls as there; OD600 change, %; measured here: OD600 growth;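 optical density of the mix in the first replicate; 0 = DMSO median and -100 = no signal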
Ecoli rRNA inh RFP: recorded beside Ecoli rRNA inh, whose call it bears; RFP signal change, %; measured here: RFP humanized mutant strains;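 first replicate; 0 = DMSO median and -100 = no signal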
Active calls of the source: *; i = inactive; + = active, no number; & = joins results of further samples. These rows are one share of the data; rates above refer to the full screens.

Fields – Ecoli rRNA inh RFP, Ecoli rRNA inh, Ecoli rRNA inh OD600, FGF22 binding
1: C[C@H]1CN([C@@H](C)CO)C(=O)Cc2cc(NC(=O)Nc3ccc(C(F)(F)F)cc3)ccc2O[C@H]1CN(C)C(=O)Nc1ccc2c(c1)OCO2
    -2.2, -3, -12, i
2: O=C(C[C@H]1C=C[C@H](NS(=O)(=O)c2ccccc2)[C@@H](CO)O1)NCc1ccc(Cl)c(Cl)c1
    4.8, -13, -15, i
3: O=C(Nc1ccc2c(c1)[C@H]1C[C@@H](CC(=O)N3CCc4ccccc4C3)O[C@@H](CO)[C@H]1O2)C1CCOCC1
    1.5, 2, -6, i
4: C[C@H](CO)N1C[C@H](C)[C@@H](CN(C)S(=O)(=O)c2cn(C)cn2)Oc2c(NS(C)(=O)=O)cccc2C1=O
    -0.2, 4, 12, i
5: COc1cccc(NC(=O)N(C)C[C@@H]2Oc3cc(-c4ccccc4F)ccc3S(=O)(=O)N([C@@H](C)CO)C[C@H]2C)c1
    2.3, -2, -7, +
6: C/C=C/c1ccc2c(c1)O[C@H](CN(C)C(=O)Cc1ccncc1)[C@H](C)CN([C@H](C)CO)S2(=O)=O
    -0.4, 4, 1, i
7: CCC(=O)N(C)C[C@@H]1Oc2cc(-c3ccncc3)ccc2S(=O)(=O)N([C@H](C)CO)C[C@@H]1C
    0.2, -2, 4, i
8: C[C@@H]1CN([C@@H](C)CO)S(=O)(=O)c2ccc(-c3ccc(F)cc3)cc2O[C@@H]1CN(C)C(=O)Nc1ccccc1F
    0.7, 0, -1, +
9: COc1ccc(NC(=O)Nc2ccc3c(c2)C(=O)N([C@@H](C)CO)C[C@@H](C)[C@@H](CN(C)C(=O)Nc2ccc4c(c2)OCO4)OCCCC[C@@H](C)O3)cc1
    -2.9, -1, -3, i
10: C[C@@H]1CN([C@H](C)CO)C(=O)c2cc(NC(=O)CCC(F)(F)F)ccc2O[C@@H](C)CCCCO[C@@H]1CN(C)Cc1ccc(Cl)c(Cl)c1
    1.2, 2, 3, i
11: CC(C)CC#Cc1cnc2c(c1)C(=O)N([C@@H](C)CO)C[C@H](C)[C@H](CN(C)C(=O)Cc1cccnc1)O2
    -0.5, 1, -2, i
12: COCC(=O)N1C[C@H](C)[C@H](OC)CN(C)C(=O)c2ccc(NC(=O)c3ccc(OC)cc3)cc2OC[C@@H]1C
    -0.1, -1, 8, i
13: Cc1noc(C)c1NC(=O)Nc1ccc2c(c1)C(=O)N([C@@H](C)CO)C[C@H](C)[C@@H](CN(C)C(=O)Nc1c(C)noc1C)O2
    -0.7, 2, 3, i
14: C[C@@H]1CN([C@H](C)CO)C(=O)c2cccc(NC(=O)C3CC3)c2O[C@H]1CN(C)C(=O)Nc1cccc2ccccc12
    -0.2, 2, 8, i
15: C[C@@H]1CN([C@H](C)CO)S(=O)(=O)c2ccc(C#CC3(O)CCCC3)cc2O[C@@H]1CN(C)C(=O)Cc1cccnc1
    0.2, 0, -5, i
16: C[C@H](CO)N1C[C@H](C)[C@@H](CN(C)Cc2ccncc2)Oc2c(NC(=O)Nc3ccc(C(F)(F)F)cc3)cccc2C1=O
    1.8, -1, -12, i
17: COC(=O)C[C@H]1C[C@H]2c3cc(N(C)C)ccc3O[C@H]2[C@@H](CO)O1
    -1.4, 2, -5, i
18: C[C@H]1CN([C@@H](C)CO)C(=O)Cc2cc(NS(=O)(=O)c3ccc(Cl)cc3)ccc2O[C@@H]1CN(C)S(=O)(=O)c1cn(C)cn1
    -1.6, 0, 0, i
19: N#C[C@H]1[C@H](c2ccc(C#CCC3CCCC3)cc2)[C@H](CO)N1C(=O)c1ccccn1
    9.2, 2, -26, i
20: CCC(=O)N1[C@@H]2c3cccc(=O)n3C[C@H]1[C@H](CO)[C@H]2C(=O)NC1CCC1
    -1.3, 1, 3, i

Rewritten with tabs: entries from further up.
#	SMILES	Ecoli rRNA inh RFP	Ecoli rRNA inh	Ecoli rRNA inh OD600	FGF22 binding
12	COCC(=O)N1C[C@H](C)[C@H](OC)CN(C)C(=O)c2ccc(NC(=O)c3ccc(OC)cc3)cc2OC[C@@H]1C	-0.1	-1	8	i
13	Cc1noc(C)c1NC(=O)Nc1ccc2c(c1)C(=O)N([C@@H](C)CO)C[C@H](C)[C@@H](CN(C)C(=O)Nc1c(C)noc1C)O2	-0.7	2	3	i
14	C[C@@H]1CN([C@H](C)CO)C(=O)c2cccc(NC(=O)C3CC3)c2O[C@H]1CN(C)C(=O)Nc1cccc2ccccc12	-0.2	2	8	i
15	C[C@@H]1CN([C@H](C)CO)S(=O)(=O)c2ccc(C#CC3(O)CCCC3)cc2O[C@@H]1CN(C)C(=O)Cc1cccnc1	0.2	0	-5	i
16	C[C@H](CO)N1C[C@H](C)[C@@H](CN(C)Cc2ccncc2)Oc2c(NC(=O)Nc3ccc(C(F)(F)F)cc3)cccc2C1=O	1.8	-1	-12	i
17	COC(=O)C[C@H]1C[C@H]2c3cc(N(C)C)ccc3O[C@H]2[C@@H](CO)O1	-1.4	2	-5	i
18	C[C@H]1CN([C@@H](C)CO)C(=O)Cc2cc(NS(=O)(=O)c3ccc(Cl)cc3)ccc2O[C@@H]1CN(C)S(=O)(=O)c1cn(C)cn1	-1.6	0	0	i
19	N#C[C@H]1[C@H](c2ccc(C#CCC3CCCC3)cc2)[C@H](CO)N1C(=O)c1ccccn1	9.2	2	-26	i
20	CCC(=O)N1[C@@H]2c3cccc(=O)n3C[C@H]1[C@H](CO)[C@H]2C(=O)NC1CCC1	-1.3	1	3	i

Continued.
Fields – Ecoli rRNA inh RFP, Ecoli rRNA inh, Ecoli rRNA inh OD600, FGF22 binding
21: CCCC(=O)Nc1ccc2c(c1)OC[C@H](C)N(Cc1ccccc1F)C[C@H](C)[C@H](OC)CN(C)C2=O
    -1.6, -4, -2, i
22: C[C@@H]1CCCCO[C@@H](CN(C)S(=O)(=O)c2ccc(Cl)cc2)[C@@H](C)CN([C@@H](C)CO)C(=O)c2cc(NC(=O)c3ccncc3)ccc2O1
    2.2, 1, 0, i
23: O=C(C[C@H]1C[C@@H]2c3cc(NC(=O)NC4CCCC4)ccc3O[C@@H]2[C@@H](CO)O1)NCc1ccc(Cl)cc1
    4.7, -16, -35, i
24: C[C@@H]1CN([C@@H](C)CO)C(=O)c2cc(NS(=O)(=O)c3cccs3)ccc2O[C@@H](C)CCCCO[C@@H]1CN(C)C(=O)c1ccccc1
    -1.2, 0, -10, i
25: C[C@@H]1CN([C@H](C)CO)C(=O)c2cccc(NC(=O)Nc3ccccc3)c2O[C@H]1CN(C)CC1CC1
    2.5, -3, 6, i
26: Cc1noc(C)c1S(=O)(=O)N(C)C[C@@H]1Oc2c(NS(=O)(=O)c3cccs3)cccc2C(=O)N([C@H](C)CO)C[C@@H]1C
    2.3, -7, -6, i
27: COC(=O)[C@H]1[C@H](CO)[C@H]2Cn3c(ccc(-c4ccccc4OC)c3=O)[C@H]2N1C(=O)c1cccnc1
    -3.1, 2, 5, i
28: C[C@@H]1CN([C@@H](C)CO)C(=O)c2cc(NC(=O)Nc3ccc(F)cc3)ccc2O[C@H]1CN(C)S(=O)(=O)c1cn(C)cn1
    0.6, 1, -3, i
29: CCCN(C)C[C@@H]1OCCCC[C@@H](C)Oc2ccc(NS(=O)(=O)c3ccc(C)cc3)cc2C(=O)N([C@@H](C)CO)C[C@@H]1C
    1.1, 3, 1, i
30: C[C@@H]1CN([C@H](C)CO)S(=O)(=O)c2ccc(-c3cncnc3)cc2O[C@H]1CN(C)C
    -1.3, 8, 1, i
31: COc1ccc(NC(=O)Nc2ccc3c(c2)C(=O)N([C@@H](C)CO)C[C@@H](C)[C@@H](CN(C)S(C)(=O)=O)O3)cc1
    0.6, -5, -6, i
32: CN(C)CC(=O)Nc1ccc2c(c1)[C@@H]1C[C@H](CC(=O)N3CCN(C)CC3)O[C@@H](CO)[C@@H]1O2
    -0.9, 4, 12, i
33: COc1ccc(S(=O)(=O)Nc2cccc3c2O[C@H](CN(C)C)[C@H](C)CN([C@@H](C)CO)C3=O)cc1
    -0.3, 1, 5, i
34: C[C@@H]1CN([C@@H](C)CO)C(=O)Cc2cc(NC(=O)C3CC3)ccc2O[C@@H]1CN(C)Cc1ccc(Oc2ccccc2)cc1
    3.0, -5, -31, i
35: C[C@@H]1CN([C@@H](C)CO)C(=O)c2cc(NS(=O)(=O)c3cn(C)cn3)ccc2O[C@@H](C)CCCCO[C@@H]1CN(C)Cc1ccc(C(F)(F)F)cc1
    1.5, -1, -17, i
36: COCC#Cc1cnc2c(c1)C(=O)N([C@H](C)CO)C[C@@H](C)[C@@H](CN(C)Cc1ccccc1)O2
    -1.4, 6, 4, i
37: O=C(C[C@H]1C=C[C@@H](NC(=O)C2CCC2)[C@H](CO)O1)NCc1ccccc1Cl
    1.1, -4, -7, i
38: C[C@H]1CN([C@@H](C)CO)C(=O)Cc2cc(NC(=O)c3ccncc3)ccc2O[C@H]1CN(C)C(=O)Nc1ccc(F)cc1
    -1.2, 4, 5, i
39: C[C@@H]1CCCCO[C@@H](CN(C)Cc2ccc(Cl)c(Cl)c2)[C@@H](C)CN([C@H](C)CO)C(=O)c2cc(NC(=O)CCCCCC(=O)Nc3ccccc3N)ccc2O1
    -4.8, -4, 1, i
40: CO[C@H]1CN(C)C(=O)c2cc(NS(=O)(=O)c3ccc(F)cc3)ccc2OC[C@@H](C)NC[C@H]1C
    0.1, 1, 4, i
41: C[C@@H]1CCCCO[C@H](CN(C)S(=O)(=O)c2ccc(Cl)cc2)[C@@H](C)CN([C@@H](C)CO)C(=O)c2cc(NC(=O)c3ccncc3)ccc2O1
    18, 3, -2, i
42: C[C@H](CO)N1C[C@H](C)[C@H](CN(C)C(=O)Nc2cccc3ccccc23)Oc2ccc(NC(=O)Cc3ccccc3)cc2C1=O
    -0.2, 1, -4, i
43: COc1ccc(S(=O)(=O)Nc2cccc3c2O[C@H](CN(C)Cc2ccc(C(F)(F)F)cc2)[C@@H](C)CN([C@H](C)CO)C3=O)cc1
    -1.3, -1, -1, i
44: CCCc1cn(CC[C@@H]2CC[C@@H](NS(=O)(=O)c3ccc(-c4ccccc4)cc3)[C@@H](CO)O2)nn1
    11, -6, -26, i
45: COc1ccccc1-c1cnc2c(c1)C(=O)N([C@@H](C)CO)C[C@@H](C)[C@H](CN(C)C(=O)c1ccccc1)O2
    1.2, -7, 8, i
46: CCNC(=O)C[C@H]1CC[C@H]2[C@@H](COC[C@H](O)CN2C(=O)CC)O1
    1.9, 2, 19, i
47: Cc1ccccc1S(=O)(=O)NCC[C@H]1CC[C@H](NC(=O)C2CCOCC2)[C@@H](CO)O1
    -0.8, 2, 0, i
48: Cc1ccc(S(=O)(=O)Nc2cccc3c2O[C@@H](CN(C)Cc2ccc4c(c2)OCO4)[C@H](C)CN([C@H](C)CO)C3=O)cc1
    1.2, 2, 4, i
49: C[C@@H](NC(=O)[C@@H]1[C@@H](CO)[C@@H]2Cn3c(ccc(-c4ccccc4F)c3=O)[C@H]1N2C)c1ccccc1
    -1.4, 0, 0, i
50: C[C@H](CO)N1C[C@H](C)[C@H](CN(C)Cc2ccc(Cl)c(Cl)c2)Oc2c(NC(=O)C3CCCCC3)cccc2C1=O
    0.1, -5, -26, i
51: CO[C@H]1CN(C)C(=O)c2ccc(NC(=O)NC(C)C)cc2OC[C@@H](C)N(C)C[C@@H]1C
    -3.6, 3, 8, i
52: CN1C(=O)N(C)N(Cc2ccccc2)C(=O)N1Cc1ccccc1
    2.0, 6, 8, i
53: O=C(C[C@@H]1CC[C@@H]2NC[C@H](O)COC[C@H]2O1)NC1Cc2ccccc2C1
    -5.9, 4, 22, i
54: Cc1noc(C)c1NC(=O)Nc1ccc2c(c1)C(=O)N([C@@H](C)CO)C[C@H](C)[C@@H](CN(C)S(=O)(=O)c1cn(C)cn1)O2
    -0.8, 1, 1, i
55: O=C(NCC[C@H]1CC[C@H](NS(=O)(=O)Cc2ccccc2)[C@H](CO)O1)C1CCCCC1
    -3.5, -2, -1, i
56: CO[C@H]1CN(C)C(=O)c2cc(NC(=O)CC(F)(F)F)ccc2OC[C@H](C)N(C(=O)C2CCCCC2)C[C@@H]1C
    1.0, -1, -5, i
57: CC(C)NC(=O)Nc1cccc2c1O[C@H](CN(C)C(=O)Nc1ccc3c(c1)OCO3)[C@H](C)CN([C@@H](C)CO)C2=O
    -0.9, 4, 8, i
58: O=C(C[C@H]1CC[C@@H]2[C@H](COC[C@@H](O)CN2S(=O)(=O)c2ccc(Cl)cc2)O1)NCc1ccc(Cl)c(Cl)c1
    -1.8, -45, -70, i
59: C[C@H](CO)N1C[C@H](C)[C@H](CN(C)Cc2ccc(C(=O)Nc3ccccc3N)cc2)Oc2c(NC(=O)C3CCOCC3)cccc2C1=O
    -2.5, 1, 6, i
60: C[C@H](CO)N1C[C@H](C)[C@@H](CN(C)Cc2ccncc2)OCc2ccccc2-c2c(n(C)c3ccccc23)C1=O
    6.0*, -22*, -6.4*, i
61: C[C@@H]1CN([C@H](C)CO)C(=O)c2cc(NS(C)(=O)=O)ccc2O[C@H]1CN(C)Cc1ccc(Oc2ccccc2)cc1
    -0.4, -6, -16, i
62: COC(=O)C1=C(C)N(Cc2ccccc2C(F)(F)F)C(=NCc2ccccc2)NC1c1ccc(Cl)cc1 (stereo not drawn)
    8.9, -21, -59, i
63: CO[C@H]1CN(C)C(=O)c2ccc(NC(=O)Nc3cc(Cl)cc(Cl)c3)cc2OC[C@H](C)NC[C@H]1C
    3.5&-3.5, 2&-5, 3&0, i
64: N#C[C@@H]1[C@@H](c2ccc(-c3ccc(F)cc3)cc2)[C@H](CO)N1C(=O)Cc1ccccc1
    3.9, -4, -23, i

Screening results deposited in PubChem by Broad Institute.
